# PINK1 expr mod – modulators of PINK1 expression | PINK1 immunofluorescence, high-content cytometry, 24 h | Potency, µM (highest dose often 76.6 µM), for the others: top-dose activation (PINK1 increase), hits mostly activators | 410,000 tested, 0.2% active; active = well fitted activation curve with a large enough effect; inconclusive = small, poorly fitted or top-dose-only effect; inactive = flat fitted curve, though single readings scatter; cell line not stated here;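 further: potency means the concentration at half of the fitted maximal effect; % of control where 0% means no effect; nearly all actives have a fitted effect of over 65% in size; a mitochondrial uncoupler was the plate control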
#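 PINK1 protein, normally rapidly degraded, was detected by immunofluorescence after 24 hour compound treatment of a stable cell line. Titration data (5 concentrations) came from laser-scanning cytometry, with CCCP-treated wells as controls.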
# TRPML1 agonist – human mucolipin-1 channel agonism | TRPML1-expressing cells, Ca2+ dye fluorescence, FDSS; host cell line not named in the record; reference of the full effect not given here | AID 624414 | Q9GZU1 | 410,000 tested, 0.12% active | activation, % (test concentration not listed); in the data active = activation above about 50%; inconclusive = about 30% to 50%; inactive = below about 30%; further: 0% is about no effect; the text of the record puts the active cut at 80%
# Target sequence (Q9GZU1 whole entry, looked up): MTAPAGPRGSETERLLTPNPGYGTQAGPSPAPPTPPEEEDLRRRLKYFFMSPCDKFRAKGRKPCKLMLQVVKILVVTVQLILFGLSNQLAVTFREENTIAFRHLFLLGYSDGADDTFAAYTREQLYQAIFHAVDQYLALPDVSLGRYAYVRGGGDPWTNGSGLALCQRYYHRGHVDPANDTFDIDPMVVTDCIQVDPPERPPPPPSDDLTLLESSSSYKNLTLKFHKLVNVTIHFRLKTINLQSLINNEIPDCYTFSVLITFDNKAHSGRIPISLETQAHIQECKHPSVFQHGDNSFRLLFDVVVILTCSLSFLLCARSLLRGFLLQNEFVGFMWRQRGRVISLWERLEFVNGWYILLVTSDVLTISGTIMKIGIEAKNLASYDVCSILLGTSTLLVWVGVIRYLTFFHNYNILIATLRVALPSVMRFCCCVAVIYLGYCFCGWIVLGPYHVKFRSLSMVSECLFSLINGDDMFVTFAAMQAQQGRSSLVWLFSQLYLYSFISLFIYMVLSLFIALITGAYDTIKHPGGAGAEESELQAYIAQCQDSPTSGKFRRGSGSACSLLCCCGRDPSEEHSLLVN
#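 Calcium fluorescence on an FDSS kinetic reader gave the read-out. Tet-induced TRPML1-DL cells were plated overnight, dye-loaded (Ca8 with quencher, 45-90 min, room temperature, dark), then read 110 s after compound addition, and again 110 s after 4uM final 54-4 (EC80).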
# Menin-MLL FL inh – menin-MLL binding inhibition, fluorescein peptide. FP activity change, % at 61.4 µM. AID 1766. 290,000 tested, under 10 active. Fluorescence polarization, fluorescein-MLL peptide displacement from menin; inconclusive = falling polarisation curve, or a change in total fluorescence; inactive = total fluorescence flat and polarisation flat or rising; no compound was filed as active; the % refers to the polarisation; negative = inhibition;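 further: % of control where 0% means no effect; inhibitors lower the polarisation; unlabelled MLL peptide was the positive control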
# ClpP mod – qHTS Assay for Activators of ClpP; AID 651965, 2013; purified B. subtilis ClpP, FRET peptide cleavage, 20 min; 340,000 tested, 1.9% active; ATP-dependent Clp protease proteolytic subunit (Bacillus subtilis (strain 168)), P80244; Potency, µM (top dose mostly 57.5 µM), without a hit: at the top dose activity change, negative = active; active = well fitted falling curve with a large enough effect; inconclusive = small, poorly fitted or top-dose-only effect; inactive = no such curve, though single readings can be large or run the other way; further: potency means the concentration at half of the fitted maximal effect; the source files actives as falling curves though it sought activators and does not explain the sign; nearly all actives have a fitted effect of over 65% in size; many hits overshoot -100%
# Target sequence (P80244 whole entry, looked up): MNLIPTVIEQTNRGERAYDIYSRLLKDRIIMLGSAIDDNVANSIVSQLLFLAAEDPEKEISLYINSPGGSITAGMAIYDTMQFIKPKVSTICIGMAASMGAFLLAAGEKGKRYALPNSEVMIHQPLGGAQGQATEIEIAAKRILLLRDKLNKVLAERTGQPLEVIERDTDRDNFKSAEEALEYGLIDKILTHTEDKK
#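 ClpP 10 microg/mL final, pH 8 Tris/KCl buffer with BSA, glycerol, Tween-20; compound pinned in; FRET-FV substrate; RT 20 min; Ex320/Em430; ΔFRET vs ADEP 5.8 microM, DMSO, no enzyme.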
# Sfp inh – inhibitors of Bacillus subtilis Sfp phosphopantetheinyl transferase; Q9F4F7; Biochemical Sfp PPTase activity, qHTS; Potency, µM, inactives show max response, negative = inhibition, most hits filed as inhibitors; 310,000 tested, 3.5% active; AID 1490; active means well fitted inhibition curve with a large enough effect; inconclusive means small, poorly fitted or top-dose-only effect, or another doubt; inactive means no such curve, though single readings can be large or run the other way;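 further: the enzyme is Sfp with the accession as filed and its product quenches rhodamine fluorescence; potency means the concentration at half of the fitted maximal effect; 0% = enzyme reaction without inhibitor and -100% = no enzyme wells; top concentration of the series not given in the record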
#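 Fluorescence-quenching assay with 15 nM Sfp, 5 uM rhodamine-CoA and 12.5 uM BHQ-2-labelled ybbR peptide in pH 7.6 Hepes/MgCl2 buffer. Enzyme was pre-incubated with compound for 15 min at room temperature. Rate was taken from the 30-min fluorescence change (525/598 nm).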
# TRPV1 PAM – potentiators of human vanilloid receptor 1 (TRPV1); Q8NER1; TRPV1-expressing cells, Fluo-8 calcium influx, capsaicin EC20 potentiation; host cell line not named in the record; control for the full effect not named in the record; potentiation, % at 8.33 µM; 320,000 tested, 0.02% active; AID 540277; active means potentiation above 80%; inconclusive means 30% to 80%; inactive means below 30%; further: 0% is about no effect
#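 Fluo-8 calcium influx in TRPV1-expressing cells, kinetic read (ex 480/em 520 nm). Compound added and read 3 min for agonist activity, followed by capsaicin at EC20 final and 2 min further read for enhancement.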
# TRPML1 blocker – inhibitors of human TRPML1 channel; Q9GZU1; activity change, negative = inhibition, % (test concentration not listed); AID 624415; 390,000 tested, 0.02% active; TRPML1-inducible cells, Ca2+ dye fluorescence, FDSS; active compounds read low; inhibition of EC80 agonist-evoked calcium signal; in the data active means activity change below about -50%; inconclusive means about -30% to -50%; inactive means above about -30%;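 further: stimulus is agonist 54-4 at its EC80 concentration; on the % scale 0 is the no-effect control and ±100 the full control effect; compound concentration not given in the record; the text of the record puts the active cut at -80%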
#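 Tet-induced TRPML1-DL cells loaded with Ca8 no-wash calcium dye were read kinetically on FDSS. Compound addition was followed by EC80 agonist 54-4 (4 uM final); inhibition was read over 110 s.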
# Numbers without * were called inactive; ? = inconclusive; nt = not tested or not shown; [ ] = remark or other dose.
SMILES,PINK1 expr mod,TRPML1 agonist,Menin-MLL FL inh,ClpP mod,Sfp inh,TRPV1 PAM,TRPML1 blocker
CCOc1ccccc1-n1c(SCC(N)=O)nc2ccccc2c1=O,-6.3%[38.3 µM],2.6,4.8,-9.2%,12%,-12,-10
O=C1N(c2ccccc2C(F)(F)F)O[C@@]1(c1ccccc1)C1CCCC1,0.9%,3.2,nt,-2.7%,nt,-6,25
O=C(Nc1ccc(Cl)cc1)C1CCC(CNS(=O)(=O)c2ccc(Br)s2)CC1 (configuration not stated),9.1%,1.8,nt,1.6%,nt,nt,48
O=C(NCCCN1CCOCC1)c1cc(-c2ccc(Br)cc2)on1,-1.1%[38.3 µM],0.9,4.1,1.2%,-1%,-22,2
S=C(Nc1ccccc1)N(Cc1ccccc1)Cc1ccncc1,-3.1%,1.4,2.5,-0.3%,8%,-22,13
O=C(O)C1CCCCC1C(=O)Nc1nccs1 (configuration not stated),nt,-0.2,-1.1,-0.4%,22%,0,-1
CCC1=Nc2cc(C(=O)NCc3ccccc3Cl)ccc2Sc2ccc(C)cc21,7.3%,2.1,nt,0.8%,nt,nt,-3
CC(C)Cc1nnc(NC(=O)CCC(=O)N2CCC(C)CC2)s1,1.3%,-0.8,nt,0.0%,13%,-24,-21
COCC(C)N=C1SCCN1Cc1ccccc1 (configuration not stated),0.1%,0.9,1.6,nt,3%,6,15
CNc1nc(N)c([N+](=O)[O-])c(NCc2ccccc2)n1,?,0.7,1.7,-6.3%,5%,?,23
COc1ccc2c(c1)C(=O)C1(CC2)OC1c1cccnc1 (configuration not stated),-0.2%,-0.1,nt,-3.1%,nt,nt,13
COc1ccccc1OCC(=O)OC/C(O)=C(\C#N)c1nc2ccccc2[nH]1,1.1%,-0.9,?,-1.6%,4%,4,-8
COc1cc(OC)c(C(=O)NCC2CCCO2)cc1OC (configuration not stated),2.1%,-0.7,-3.6,0.0%,6%,16,3
Cc1csc2nc(O)c(C(=O)NC3CCCCCC3)c(=O)n12,0.7%,0.0,nt,nt,nt,2,-6
CCOC(=O)c1ccc(N2C(=O)CC(NC3CCN(C(=O)c4cccc(Cl)c4)CC3)C2=O)cc1 (configuration not stated),-1.3%,-0.4,1.6,-1.5%,-2%,-5,14
Cc1ccc(N(Cc2ccccc2)C(=O)c2cc(S(=O)(=O)N3CCOCC3)ccc2C)cc1,-0.6%,0.2,nt,0.4%,nt,-6,42
CC(=O)/C(N=Nc1ccc(SC(F)F)cc1)=C(\C)O,0.2%,-0.3,2.9,-1.5%,6%,-2,1
Oc1[nH]c2ccccc2c1N=Nc1nc2ccccc2s1,5.4%,-0.3,11,-2.0%,9%,-7,19
CCCn1c(-c2ccc(F)cc2)n[nH]c1=S,-3.8%[38.3 µM],-0.8,-0.5,-4.6%,-4%,0,12
CCC(C)Sc1ccc(-c2nc3ccc(C)cn3c2NC2CCCCC2)cc1 (configuration not stated),0.5%,0.3,nt,4.1%,nt,-7,68
COCCn1c(C)cc(C(=O)COC(=O)c2ccc3c(c2)NC(=O)CS3)c1C,1.1%,-0.3,1.3,-8.9%,?,-6,?
CCOc1cc(NC(=S)NCCCN(C)C)c(OCC)cc1NC(=O)C1CC1,0.0%,-0.3,1.3,nt,-6%,16,-13
Nc1cnn(C2CCCO2)c(=O)n1 (configuration not stated),-0.3%[38.3 µM],1.3,4.9,-1.5%,-6%,29,-11
Cc1cccc(C(=O)OCC(=O)Nc2ccc(N3CCCCC3)cc2)c1O,2.8%,-0.2,1.4,-8.3%,3%,13,0
Cn1c(SCC(=O)N2CCN(c3ccccc3)CC2)nnc1-c1c[nH]c2ccccc12,2.7%,-0.3,-4.2,-0.4%,-6%,13,-1
# Other results:
SMILES,PINK1 expr mod,TRPML1 agonist,Menin-MLL FL inh,ClpP mod,Sfp inh,TRPV1 PAM,TRPML1 blocker
COC(=O)Cc1ccc2oc(-c3cccnc3)nc2c1,-0.4%,-0.6,2.6,nt,7%,-2,-5
O=c1ccc(=O)n2n1CC(O)C2,-0.5%,0.4,5.2,-2.4%,9%,?,-7
COc1ccc(NC(=O)Nc2ccc3nonc3c2)cc1,-0.9%,-0.3,0.3,nt,12%,-17,4
Cn1c(SCc2ccccc2)nc2ccsc2c1=O,1.8%,1.3,-0.9,nt,-23%,-2,-1
COc1ccccc1N1CCN(S(=O)(=O)CCNC(=O)c2cccs2)CC1,0.3%,-0.3,nt,-2.6%,nt,nt,2
CC1CC(=O)c2cnc(NCC3CCCO3)nc2C1 (configuration not stated),-2.8%,0.0,-1.5,-11%,9%,1,-19
O=C(NCC(c1cccs1)N1CCOCC1)c1cn(-c2ccccc2)nc1-c1ccc(F)cc1 (configuration not stated),3.2%,1.1,nt,nt,nt,?,-19
Brc1ccc(-c2nnc3sc(CN4CCCCC4)cn23)cc1,2.1%,1.8,nt,-1.3%,nt,nt,4
CCc1noc(C)c1C(=O)OCC(=O)Nc1ccccc1SC,1.3%,-0.3,nt,-3.1%,nt,7,3
COc1cccc(N2C(=O)C(CC(=O)Nc3ccc(F)cc3)N(C3CCCCC3)C2=O)c1 (configuration not stated),0.5%,0.2,-0.2,-1.2%,6%,7,33
COc1ccccc1NC(=O)C1=C(C)Nc2c(C(=O)Nc3ccc(F)cc3)cnn2C1c1cccc([N+](=O)[O-])c1 (configuration not stated),10%,2.6,nt,-3.5%,nt,nt,43
O=C(Nc1nnc(-c2ccccc2)o1)NC1CCCCC1,-1.0%,1.0,-0.3,?,8%,-17,10
CCCCCn1ccc(=O)c2c(C(F)(F)F)nccc21,-0.7%,0.0,-1.8,-4.4%,10%,1,19
CN(C)c1ncnc2c1ncn2C1OC(CO)C(O)C1O (configuration not stated),-2.7%,-0.3,3.3,-0.8%,15%,-8,9
Cc1ccc(CCNC(=O)C2CCN(C(=O)c3sccc3-n3cccc3)CC2)cc1,-1.9%,2.3,3.5,-1.7%,1%,4,32
CSc1ccccc1C(=O)NC1CC2CCC1C2 (configuration not stated),-0.9%,1.3,1.4,-0.3%,6%,-5,5
COc1ccc2[nH]c(=O)c(CNc3ccccc3C)cc2c1,0.3%,10.0,-7.6,nt,22µM*,4,8
CC(=O)c1c(C)[nH]c(C(=O)OCC(=O)Nc2ccc(Cl)cc2[N+](=O)[O-])c1C,?,0.0,-1.4,1.3%,-6%,3,0
CCc1c(C)nc2nc(-c3ccccc3)nn2c1NCc1ccc(C)cc1,20%,0.9,nt,-9.7%,nt,nt,64
COc1cccc(C(=O)/C=C/Nc2ccc(S(=O)(=O)Nc3ccc(C(C)=O)cc3)cc2)c1,-1.1%,1.5,nt,-7.5%,48%[activator],1,9
Cc1ccc(NC(=O)CSc2ccc(-c3sc(-c4ccccc4)nc3C)nn2)cc1F,0.8%,-0.5,nt,-10%,nt,nt,-6
CCn1cc(-c2cc(C(=O)O)on2)c(C)n1,-1.4%,-0.2,0.2,nt,14%,17,-21
CC(=O)c1cc(C(=O)N2CCCC(CCC(=O)N(C)CCc3ccccn3)C2)cs1 (configuration not stated),1.2%,-0.4,-4.0,3.3%,20%,4,18
CCOC(=O)COc1ccc(Cl)cc1C1NC(=O)NC(C)=C1C(C)=O (configuration not stated),-1.4%,-0.3,2.3,-4.6%,7%,-12,-11
CCCOc1ccc(C(=O)OCC(=O)NCCc2ccc(OCC)c(OCC)c2)cc1OC,-0.2%,2.2,nt,1.4%,-9%,10,-7

# Reprinted at random: two records from the list, in no set order.
SMILES,PINK1 expr mod,TRPML1 agonist,Menin-MLL FL inh,ClpP mod,Sfp inh,TRPV1 PAM,TRPML1 blocker
COc1cccc(C(=O)/C=C/Nc2ccc(S(=O)(=O)Nc3ccc(C(C)=O)cc3)cc2)c1,-1.1%,1.5,nt,-7.5%,48%[activator],1,9
CCCCCn1ccc(=O)c2c(C(F)(F)F)nccc21,-0.7%,0.0,-1.8,-4.4%,10%,1,19

# Back to the main list; the 3 compounds before the break are reprinted first.
SMILES,PINK1 expr mod,TRPML1 agonist,Menin-MLL FL inh,ClpP mod,Sfp inh,TRPV1 PAM,TRPML1 blocker
CC(=O)c1cc(C(=O)N2CCCC(CCC(=O)N(C)CCc3ccccn3)C2)cs1 (configuration not stated),1.2%,-0.4,-4.0,3.3%,20%,4,18
CCOC(=O)COc1ccc(Cl)cc1C1NC(=O)NC(C)=C1C(C)=O (configuration not stated),-1.4%,-0.3,2.3,-4.6%,7%,-12,-11
CCCOc1ccc(C(=O)OCC(=O)NCCc2ccc(OCC)c(OCC)c2)cc1OC,-0.2%,2.2,nt,1.4%,-9%,10,-7
COc1cc(C(=O)NC(C)C2CC3CCC2C3)ccc1OC(F)F (configuration not stated),2.7%,3.7,nt,-4.0%,nt,?,-12
CC(C)CNC(=O)c1cccc(NC(=O)CSc2ccccc2)c1,-1.0%,-0.1,1.1,0.5%,10%,29,-7
CC1CCN(C(=O)CSc2nnc(NC(=O)Nc3ccccc3)s2)CC1,0.2%,1.4,nt,-4.2%,nt,nt,-5
CCc1cc2c(SCC(=O)NC3CCS(=O)(=O)C3)ncnc2s1 (configuration not stated),0.4%,-0.2,-2.7,nt,-7%,11,-8
CCCCN=C1NN=C(c2cccc([N+](=O)[O-])c2)CS1,-0.1%,0.9,-1.5,nt,2%,8,-7
O=C(Nc1nnc(-c2ccc(F)cc2)o1)c1ccco1,0.5%,-0.5,0.4,-2.9%,10%,-3,10
O=C(Nc1ccc(N2CCOCC2)cc1)C1CC(O)CN1S(=O)(=O)c1ccc(Cl)cc1 (configuration not stated),-1.2%,1.3,-0.9,0.2%,17%,11,24
CCOC(=O)C1=C(C)N=c2s/c(=C\c3cccn3C)c(=O)n2C1c1cccc(OC)c1OC (configuration not stated),0.3%,1.5,?,-2.6%,16µM*,19,-13
CCOc1nc(SCCOc2ccccc2)nc(N(C)C)n1,-0.5%,-0.3,0.3,-1.2%,-9%,14,-1
COc1cccc(C(=O)Nc2ccccc2-c2nc3ccccc3s2)c1,-1.1%,-0.5,nt,?,nt,nt,-5
COCCN1CCN(c2c(C)c(C)nc3cc(-c4cccc(OC)c4)nn23)CC1,0.5%,0.0,nt,nt,nt,nt,?
Cc1ccc(C(NC(=O)N2CC(C)OC(C)C2)C(Cl)Cl)cc1F (configuration not stated),1.3%,-0.5,7.1,0.5%,7%,7,-5
CC1=C(C(=O)NCc2cccc(Br)c2)C2(CCCCC2)OC1=O,2.0%,-0.5,nt,1.3%,nt,nt,-2
CCOc1cc(C(F)(F)F)cnc1/C(N)=N/O,3.5%,1.2,5.1,1.2%,-3%,5,30
